# Assay outcomes: PubChem, National Center for Advancing Translational Sciences (NCATS)
# TRPML1 ag = activates the human TRPML1 channel. Q9GZU1. TRPML1-expressing cells, Ca2+ dye fluorescence, FDSS; host cell line not named in the record; reference of the full effect not given here. activation, % (no concentration beside the values). 0.12% of 410,000 active; in the data active = activation above about 50%; inconclusive = about 30% to 50%; inactive = below about 30%; further: 0% is about no effect; the text of the record puts the active cut at 80%
#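 Calcium fluorescence on an FDSS kinetic reader gave the read-out. Tet-induced TRPML1-DL cells were plated overnight, dye-loaded (Ca8 with quencher, 45-90 min, room temperature, dark), then read 110 s after compound addition, and again 110 s after 4uM final 54-4 (EC80).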
# Six1-Eya2 blk = Six1/Eya2 interaction inhibition; AID 651725; activity change, % (test concentration not listed); Q15475+O00167; AlphaScreen GST-Six1/His-Eya2 binding, biochemical; hits give low values; control for the full effect not named in the record; 0.56% of 360,000 active; in the data active = activity change below about -65%; inconclusive = about -30% to -65%; inactive = above about -30%; further: on the % scale 0 is the no-effect control and ±100 the full control effect; compound concentration not given in the record
# Target sequence (O00167 whole entry, looked up): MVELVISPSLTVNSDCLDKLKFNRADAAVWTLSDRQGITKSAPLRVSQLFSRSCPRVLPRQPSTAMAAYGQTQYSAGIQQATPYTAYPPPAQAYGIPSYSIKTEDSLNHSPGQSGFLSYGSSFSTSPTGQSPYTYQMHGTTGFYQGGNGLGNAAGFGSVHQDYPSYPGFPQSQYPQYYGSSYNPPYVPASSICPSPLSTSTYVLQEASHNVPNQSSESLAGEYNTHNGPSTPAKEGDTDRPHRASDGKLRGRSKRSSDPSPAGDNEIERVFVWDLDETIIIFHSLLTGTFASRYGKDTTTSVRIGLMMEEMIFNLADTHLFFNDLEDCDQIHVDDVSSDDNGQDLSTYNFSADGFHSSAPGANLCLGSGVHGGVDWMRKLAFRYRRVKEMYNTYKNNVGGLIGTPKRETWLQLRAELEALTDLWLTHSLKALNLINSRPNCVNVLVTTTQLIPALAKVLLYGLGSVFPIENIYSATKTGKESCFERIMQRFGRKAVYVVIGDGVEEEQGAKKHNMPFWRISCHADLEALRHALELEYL
# Target sequence (Q15475 whole entry, looked up): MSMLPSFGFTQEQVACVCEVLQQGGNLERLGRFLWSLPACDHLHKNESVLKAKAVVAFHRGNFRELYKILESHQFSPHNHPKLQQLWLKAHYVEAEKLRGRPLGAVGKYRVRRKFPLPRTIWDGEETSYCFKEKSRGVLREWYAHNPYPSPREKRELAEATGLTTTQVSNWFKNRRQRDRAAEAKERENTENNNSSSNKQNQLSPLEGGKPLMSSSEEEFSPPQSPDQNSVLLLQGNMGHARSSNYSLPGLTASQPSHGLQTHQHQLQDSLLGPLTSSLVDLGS
#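 Homogeneous AlphaScreen proximity assay pairing GST-Six1 with His-tagged Eya2 (added as 5X mix: 250 nM and 500 nM) in 50 mM Tris pH 8.0, 300 mM NaCl, 1 mM TCEP. Glutathione donor and nickel acceptor beads; 1 h, 37 °C, dark.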
# PINK1 expr mod = modulators of PINK1 expression; 0.2% of 410,000 active; Potency, µM (top dose mostly 76.6 µM), inactives show top-dose activation (PINK1 increase), actives largely listed as activators; PINK1 immunofluorescence, high-content cytometry, 24 h; active = well fitted activation curve with a large enough effect; inconclusive = small, poorly fitted or top-dose-only effect; inactive = flat fitted curve, though single readings scatter; cell line not stated here;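 further: potency means the concentration at half of the fitted maximal effect; % of control where 0% means no effect; nearly all actives have a fitted effect of over 65% in size; a mitochondrial uncoupler was the plate control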
#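 PINK1 protein, normally rapidly degraded, was detected by immunofluorescence after 24 hour compound treatment of a stable cell line. Titration data (5 concentrations) came from laser-scanning cytometry, with CCCP-treated wells as controls.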
# CtBP-E1A inh = inhibitors of CtBP/E1A interaction. 0.49% of 340,000 active. activity change, % (no concentration beside the values). AlphaScreen GST-E1A/His-CtBP binding, 1536-well; hits give low values; control for the full effect not named in the record; in the data active means activity change below about -65%; inconclusive means about -30% to -65%; inactive means above about -30%; further: on the % scale 0 is the no-effect control and ±100 the full control effect; compound concentration not given in the record
#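 GST-E1A and His-tagged CtBP (125 nM each as 5X stock) were preincubated with pin-transferred compound for 2 h at 37 °C in the dark, then glutathione donor and nickel acceptor beads were added for 1 h before AlphaScreen reading.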
# D2 PAM = positive allosteric modulators of human D2 dopamine receptor. P14416. 0.23% of 360,000 active. potentiation, % (concentration not given with the values). DiscoveRx D2 beta-arrestin cells, luminescence, 90 min; 100% = 57 uM dopamine signal; active = potentiation of 50% or more; inconclusive = 30% to 50%; inactive = 30% or less;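 further: compound concentration not given in the record; tested on top of an EC20 dose of dopamine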
#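 D2 cells co-treated with compound plus 50 nM dopamine (EC20) for 90 min at 37 deg C to detect potentiation. Beta-arrestin recruitment was read as enzyme-fragment luminescence after 1 h at ambient temperature. Full response was set by 57 uM dopamine.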
# D2 agonist = human D2 receptor agonism in beta-arrestin assay. P14416. DiscoveRx PathHunter D2 beta-arrestin, luminescence, 90 min; 100% = 57 uM dopamine signal. activation, % (no concentration beside the values). 0.084% of 360,000 active. AID 624465; in the data active = activation above about 40%; inconclusive = about 15% to 40%; inactive = below about 15%; further: compound concentration not given in the record; the text of the record calls up to 30% inactive
#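 Agonist mode: compounds alone added to overnight-plated D2 PathHunter cells for 90 min at 37 C, with 57 uM final dopamine (EC100) defining full response. Beta-arrestin recruitment detected by chemiluminescent reagent, read after 1 h at ambient temperature.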
# The depositor's hits bear a star; ? = inconclusive; · = not tested or not shown; [ ] = another dose, or the depositor's remark. An unsorted share of the library. Share with any hit: about 1.3%.
# Every second line gives: TRPML1 ag	Six1-Eya2 blk	PINK1 expr mod	CtBP-E1A inh	D2 PAM	D2 agonist
CCCC1=[N+](CC(=O)c2ccccc2)CCn2cccc21
    -0.2	-1	8.5%	-8	-25	-6.9
Cc1cccc(NC(=S)NNC(=O)c2ccc(O)cc2O)c1C
    -0.3	-10	0.3%	-17	-2	-2.5
COc1cccc(CN2CCNC(=O)C2CC(=O)NCCOc2cccnc2)c1 (configuration not stated)
    0.5	3	0.6%	5	-7	-3.7
Cn1cc(C2OC(=O)c3ccccc32)c2ccccc21 (configuration not stated)
    -0.7	5	3.2%	-9	-3	-1.7
O=C(O)Cn1nnnc1SCC(=O)Nc1ccccc1F
    -0.6	-5	-0.2%	2	-19	-0.9
COc1ccc(C2CC(=O)C(CS(=O)(=O)c3ccccc3)C(=O)C2)cc1 (configuration not stated)
    0.1	9	2.3%	·	-3	-3.4
CCC(c1nnnn1Cc1ccc(F)cc1)N(CCCO)Cc1cc2cc3c(cc2[nH]c1=O)OCO3 (configuration not stated)
    -0.6	1	0.1%	5	-5	-5.1
O=C1C2C3C=CC(C3)C2C(=O)N1c1ccc2ccccc2n1 (configuration not stated)
    -0.5	0	-1.3%	15	-6	1.8
COC(=O)c1cccc(S(=O)(=O)N2CCCC2)c1
    0.0	10	0.6%	0	-6	-1.3
Cn1c(=O)c2c(-c3ccccc3)n(Cc3cccnc3)cc2n(C)c1=O
    -1.0	1	-0.6%	3	-4	3.2
O=C(NNc1ccccc1)c1ccccc1
    -0.3	0	2.2%	17	-11	-6.9
O=C(CCN1C(=O)c2ccccc2C1=O)Oc1ccc2ccccc2c1
    -0.2	5	-1.5%	-5	0	-0.8
Cc1cc(SCC(=O)Nc2cccc(S(=O)(=O)NC3=NCCCCC3)c2)c(C)cc1Br
    -0.5	-9	-1.9%	1	1	-1.7
N#Cc1ccc(-n2nnc3ccccc3c2=O)c([N+](=O)[O-])c1
    1.9	1	1.3%	-7	9	2.3
COCCn1c(SCC(=O)c2ccccc2)nc2ccccc2c1=O
    2.2	0	1.2%	-5	-9	-1.8
COc1ccc(NC(=O)CCc2nnc3ccc(N4CCC5(CC4)OCCO5)nn23)cc1
    -0.4	-2	2.1%	0	-11	4.8
Cc1ccc(S(=O)(=O)N2CCC(C(=O)N[C@H](C(=O)NCC3CCCO3)C(C)C)CC2)cc1 (some centres not stated)
    -0.8	-1	1.8%[38.3 µM]	4	1	-0.1
O=C(CC1Sc2ccccc2NC1=O)NNc1cccc(Cl)c1Cl (configuration not stated)
    0.8	0	3.9%	0	-16	-3.1
Cc1ccc(Sc2ccc(S(=O)(=O)Nc3ccc(CC(=O)O)cc3)cc2)cc1C
    0.8	-4	1.8%	-6	-2	-0.4
COc1ccc(C(c2nnnn2CC2CCCO2)N2CCN(c3ccccc3)CC2)cc1 (configuration not stated)
    -0.9	-6	-0.2%	1	-7	-1.2

# Quoted from the listing:
# Value for Cn1cc(C2OC(=O)c3ccccc32)c2ccccc21 (configuration not stated) under PINK1 expr mod: 3.2%
# Value for Cc1cc(SCC(=O)Nc2cccc(S(=O)(=O)NC3=NCCCCC3)c2)c(C)cc1Br under PINK1 expr mod: -1.9%
# Value for Cn1c(=O)c2c(-c3ccccc3)n(Cc3cccnc3)cc2n(C)c1=O under CtBP-E1A inh: 3
# Value for N#Cc1ccc(-n2nnc3ccccc3c2=O)c([N+](=O)[O-])c1 under CtBP-E1A inh: -7

# Reprinted from the listing (2 entries):
# Every second line gives: TRPML1 ag	Six1-Eya2 blk	PINK1 expr mod	CtBP-E1A inh	D2 PAM	D2 agonist
COc1ccc(C2CC(=O)C(CS(=O)(=O)c3ccccc3)C(=O)C2)cc1 (configuration not stated)
    0.1	9	2.3%	·	-3	-3.4
CCC(c1nnnn1Cc1ccc(F)cc1)N(CCCO)Cc1cc2cc3c(cc2[nH]c1=O)OCO3 (configuration not stated)
    -0.6	1	0.1%	5	-5	-5.1

# The listing picks up, starting six compounds before the break.
# Every second line gives: TRPML1 ag	Six1-Eya2 blk	PINK1 expr mod	CtBP-E1A inh	D2 PAM	D2 agonist
COCCn1c(SCC(=O)c2ccccc2)nc2ccccc2c1=O
    2.2	0	1.2%	-5	-9	-1.8
COc1ccc(NC(=O)CCc2nnc3ccc(N4CCC5(CC4)OCCO5)nn23)cc1
    -0.4	-2	2.1%	0	-11	4.8
Cc1ccc(S(=O)(=O)N2CCC(C(=O)N[C@H](C(=O)NCC3CCCO3)C(C)C)CC2)cc1 (some centres not stated)
    -0.8	-1	1.8%[38.3 µM]	4	1	-0.1
O=C(CC1Sc2ccccc2NC1=O)NNc1cccc(Cl)c1Cl (configuration not stated)
    0.8	0	3.9%	0	-16	-3.1
Cc1ccc(Sc2ccc(S(=O)(=O)Nc3ccc(CC(=O)O)cc3)cc2)cc1C
    0.8	-4	1.8%	-6	-2	-0.4
COc1ccc(C(c2nnnn2CC2CCCO2)N2CCN(c3ccccc3)CC2)cc1 (configuration not stated)
    -0.9	-6	-0.2%	1	-7	-1.2
COc1ccc(CN2CCNC(=O)C2CC(=O)NC2CCCC2)c(OC)c1 (configuration not stated)
    0.4	3	0.4%	·	-6	-1.4
COc1ccc(OCc2cc(C(=O)NCCN3CCCc4ccccc43)no2)c(Cl)c1
    -0.4	?	6.7%	-19	3	4.4
C=CCn1c(=S)[nH]c2cc(C(=O)N3CCN(c4ccccc4OC)CC3)ccc2c1=O
    -0.6	-3	-0.6%	-8	-2	-4.1
CC(C)(C)NS(=O)(=O)c1ccc(Oc2ncc(C(F)(F)F)cc2Cl)cc1
    3.1	7	1.8%	-3	-13	1.2
COCCNS(=O)(=O)c1ccc(-c2ccc(S(=O)(=O)NCCOC)cc2)cc1
    0.1	3	-4.7%[38.3 µM]	6	2	-3.4
O=C(/C=C/c1ccc([N+](=O)[O-])cc1)N1CCN(Cc2ccccc2)CC1
    0.0	1	5.9%	-1	1	-1.6
CSc1ccc(C(=O)C2CCCN(C(=O)CCCn3cncn3)C2)cc1 (configuration not stated)
    0.4	11	-0.6%	-7	-9	1.7
CC(C)NC(=O)C(Cc1ccccc1)N1C(=O)c2ccccc2C1=O (configuration not stated)
    0.1	7	-5.5%[38.3 µM]	3	-3	1.1
CCOC(=O)N1CCN(S(=O)(=O)c2ccc3c(c2)SC(C)C(=O)N3)CC1 (configuration not stated)
    -0.4	0	1.3%	9	6	2.8
O=C(O)c1ccccc1C(=O)N1CCN(c2ncccn2)CC1
    -0.8	5	-1.1%	4	-7	1.8
COc1ccc(/C=N/NC(=S)Nc2cccc(C(=O)O)c2)cc1
    1.3	0	0.8%	-7	-10	-5.6
O=C(OCc1c(F)cccc1Cl)c1cnc2ccccc2n1
    1.9	-2	0.6%	-10	2	-3.2
COc1ccc(N2C(=O)CC(NNc3nc4ccccc4s3)C2=O)cc1 (configuration not stated)
    -0.4	2	3.3%	6	-4	3.7
O=C(Nc1ccc(F)cc1)Nc1nnc(Cc2ccccc2)s1
    -0.1	1	3.4%	6	-9	6.4
CCOC(=O)C1(Cc2ccccc2C)CCCN(C(=O)c2cc(CC)nn2C)C1 (configuration not stated)
    0.7	4	3.3%	-6	7	-1.6
OCC1(CCOc2ccccc2)CCN(Cc2ccc(OC(F)F)cc2)CC1
    1.3	0	4.3%	-16	-24	1.1
O=C(COC(=O)Cc1ccc(F)cc1)Nc1ccc2[nH]c(=O)[nH]c2c1
    0.3	-18	0.6%	-6	-10	-3.2
COc1ccc(C(=O)N2CCc3ccc(NC(=O)c4ccccn4)cc3C2)cc1F
    -0.2	-7	6.6%	-9	-4	0.0
CCN1/C(=C2\OC(=S)N(C)C2=O)C=Cc2ccccc21
    0.5	-7	?	-16	-21	-3.8
COc1ccc(C(=O)N/N=C2/SCC(=O)N2Cc2ccc3c(c2)OCO3)cc1OC
    -0.1	-19	-2.2%[38.3 µM]	-29	-3	3.3

# Pulled by compound from above:
# Every second line gives: TRPML1 ag	Six1-Eya2 blk	PINK1 expr mod	CtBP-E1A inh	D2 PAM	D2 agonist
COc1ccc(/C=N/NC(=S)Nc2cccc(C(=O)O)c2)cc1
    1.3	0	0.8%	-7	-10	-5.6
O=C(/C=C/c1ccc([N+](=O)[O-])cc1)N1CCN(Cc2ccccc2)CC1
    0.0	1	5.9%	-1	1	-1.6
CSc1ccc(C(=O)C2CCCN(C(=O)CCCn3cncn3)C2)cc1 (configuration not stated)
    0.4	11	-0.6%	-7	-9	1.7

# Following part.
# Every second line gives: TRPML1 ag	Six1-Eya2 blk	PINK1 expr mod	CtBP-E1A inh	D2 PAM	D2 agonist
CCOc1ncccc1C(=O)NCC(c1ccco1)N1CCCCC1 (configuration not stated)
    0.5	3	5.8%	0	-19	-4.2
Nc1ccc2ccccc2c1N=Nc1ccccc1
    1.4	-76*	5.8%	-77*	-13	-1.3
CCCc1cc(=O)[nH]c(SCC(=O)Nc2cc(S(=O)(=O)N3CCOCC3)ccc2Cl)n1
    1.3	-8	1.3%	-20	-2	0.9
CC1CCC(NC(=O)C2CCN(S(=O)(=O)c3ccc4nc5c(c(C(=O)O)c4c3)CC(C)CC5)CC2)CC1 (configuration not stated)
    0.2	-5	0.2%	·	-4	1.3
Fc1ccc(Oc2nccc(-c3ccc(Cl)cc3)n2)cc1
    1.1	19	15%	8	-36	-0.8
Cc1ccc(C)c(NC(=O)CN(C)C(=O)CSC(C)C(=O)Nc2cc(C)on2)c1 (configuration not stated)
    0.0	20	0.5%	-16	-24	-1.8
CC(C)C[C@H](NC(=O)[C@H](Cc1ccccc1)n1c(=O)[nH]c2ccccc2c1=O)C(=O)N1CCC[C@@H]1C(=O)O
    0.5	4	0.0%	-4	-12	-2.2
Cc1ccc(C2(C)NC(=O)N(CC(=O)Nc3ccccc3C(=O)N3CCCCC3)C2=O)cc1 (configuration not stated)
    3.3	3	4.3%	-20	-3	-2.7
Cc1c(C(=O)N(Cc2cccc(Br)c2)C2CCS(=O)(=O)C2)oc2ccccc12 (configuration not stated)
    -0.8	-6	-1.0%	-9	2	-3.2
CCCCN(CCCC)C(=O)C1(P(=O)(c2ccccc2)c2ccccc2)CCC1
    2.0	-2	-1.2%	-1	-13	-7.5
CC(Oc1cccc(Cl)c1)C(=O)N(C)CC(=O)Nc1ccc(N2CCOCC2)cc1 (configuration not stated)
    -0.6	-1	1.2%	0	8	-2.5
O=c1c2ccccc2oc2nc(-c3ccco3)n(Cc3ccccc3)c(=O)c12
    -0.9	-3	-1.3%	-11	-1	-2.2
COc1ccc(CCNc2ccc(C(CC(N)=O)NC(=O)c3ccc(Br)cc3)cc2[N+](=O)[O-])cc1 (configuration not stated)
    -0.5	-15	6.2%	-21	-29	1.9
COc1ccc(C(=O)N2CCN(c3nc4cc(C)cc(C)c4cc3C#N)CC2)cc1
    3.5	17	-0.2%	-3	7	5.5
COc1ccc(-c2noc(CN3CCCCC3)n2)cc1OC
    0.5	1	8.6%[38.3 µM]	-3	-9	-3.3
Cc1cc(O)ccc1NC(=O)CCN1C(=O)c2ccc([N+](=O)[O-])cc2C1=O
    1.5	3	-1.0%	-10	73*	?
